# Source: PubChem BioAssay (National Center for Advancing Translational Sciences (NCATS))
# Six1-Eya2 inh: Six1/Eya2 interaction inhibition; AID 651725; activity change, % (concentration not given with the values); 0.56% of 360,000 active; AlphaScreen GST-Six1/His-Eya2 binding, biochemical; active compounds read low; control for the full effect not named in the record; in the data active = activity change below about -65%; inconclusive = about -30% to -65%; inactive = above about -30%; also: % is scaled to controls: 0 for no effect and ±100 for the full control effect
#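 Six1/Eya2 binding was read as AlphaScreen signal after compounds were pinned into GST-Six1 plus His-tagged Eya2 (5X stock 250/500 nM) in pH 8.0 Tris/NaCl/TCEP buffer, beads added, then incubated 1 h, 37 C, dark.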
# gsp antagonist: antagonists of gsp mutant (McCune-Albright syndrome); Potency, µM (highest dose often 76.9 µM), for the others: at the top dose activity change, negative = inhibition, actives largely listed as inhibitors; gsp-mutant cells, cAMP HTRF, 30 min; control for the full effect not named in the record; 0.4% of 340,000 active; active = falling curve of any shape with a large fitted effect; inconclusive = falling curve, mostly with a smaller effect; inactive = flat or rising curve; cell line not stated here;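 also: intracellular cAMP measured with PDE inhibitor Ro 20-1724 present during compound exposure; potency is read from the fitted curve at half-maximal effect; % is scaled to controls: 0 for no effect and ±100 for the full control effect; nearly all actives have a fitted effect of over 65% in size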
#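 Cells in G418 medium, seeded 16-24 h, 37C; buffer exchange to DPBS + 1 mM CaCl2, 0.5 mM MgCl2, 0.05% BSA; cpds in DMSO + […] (300 uM stock), 30 min 37C; HTRF cAMP detection.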
# gsp ag: gsp mutant agonism | gsp mutant cells, cAMP HTRF, 30 min; control for the full effect not named in the record | Potency, µM (titrated, usually from 76.9 µM), for inactives: top-dose activation (cAMP increase), usual class: activators | 0.13% of 340,000 active; active = well fitted activation curve with a large enough effect; inconclusive = small, poorly fitted or top-dose-only effect, or another doubt; inactive = no such curve, though single readings can be large or run the other way; cell line not stated here;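 also: phosphodiesterase inhibitor Ro 20-1724 added with compounds to block cAMP breakdown; potency is read from the fitted curve at half-maximal effect; nearly all actives have a fitted effect of over 60% in size; about a fifth of the inactives were tested at one dose only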
#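 Cells in DMEM/10% FBS with G418 were pretreated with compounds in DMSO plus […] (300 uM stock) for 30 min at 37C. cAMP was measured by HTRF (cAMP-d2 plus anti-cAMP antibody-K) after 30 min at room temperature.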
# D2 agonist: agonists of human D2 dopamine receptor (beta-arrestin); AID 624465; activation, % (no concentration beside the values); P14416; DiscoveRx PathHunter D2 beta-arrestin, luminescence, 90 min; 100% = 57 uM dopamine signal; 0.084% of 360,000 active; in the data active = activation above about 40%; inconclusive = about 15% to 40%; inactive = below about 15%; also: compound concentration not given in the record; the text of the record calls up to 30% inactive
# Target sequence (P14416 whole entry, looked up): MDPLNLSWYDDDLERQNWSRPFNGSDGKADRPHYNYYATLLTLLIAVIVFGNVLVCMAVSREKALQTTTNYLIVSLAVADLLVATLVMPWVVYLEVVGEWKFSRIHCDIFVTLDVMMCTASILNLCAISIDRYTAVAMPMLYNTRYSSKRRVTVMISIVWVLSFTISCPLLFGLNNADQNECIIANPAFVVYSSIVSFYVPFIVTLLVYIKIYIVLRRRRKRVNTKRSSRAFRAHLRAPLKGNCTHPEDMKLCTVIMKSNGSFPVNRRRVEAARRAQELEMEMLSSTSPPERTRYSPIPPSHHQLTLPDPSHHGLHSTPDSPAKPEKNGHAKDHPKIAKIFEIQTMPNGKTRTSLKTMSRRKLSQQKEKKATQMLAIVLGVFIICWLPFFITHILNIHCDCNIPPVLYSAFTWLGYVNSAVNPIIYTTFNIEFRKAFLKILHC
#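 Agonist mode: compounds alone added to overnight-plated D2 PathHunter cells for 90 min at 37 C, with 57 uM final dopamine (EC100) defining full response. Beta-arrestin recruitment detected by chemiluminescent reagent, read after 1 h at ambient temperature.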
# CtBP-E1A inh: inhibitors of CtBP/E1A interaction; activity change, % (test concentration not listed); 0.49% of 340,000 active; AlphaScreen GST-E1A/His-CtBP binding, 1536-well; active compounds read low; control for the full effect not named in the record; in the data active means activity change below about -65%; inconclusive means about -30% to -65%; inactive means above about -30%; also: % is scaled to controls: 0 for no effect and ±100 for the full control effect
#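 Protein mix (5X: 125 nM each GST-E1A, His-CtBP) was incubated with pinned compound 2 h at 37 deg C in dark, in 50 mM Tris pH 8.0 buffer with 300 mM NaCl. Glutathione donor and nickel acceptor beads followed; AlphaScreen signal read after 1 h.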
# D2 potentiator: potentiates the human D2 dopamine receptor allosterically. P14416. DiscoveRx D2 beta-arrestin cells, luminescence, 90 min; 100% = 57 uM dopamine signal. potentiation, % (no concentration beside the values). 0.23% of 360,000 active. AID 624464; active = potentiation of 50% or more; inconclusive = 30% to 50%; inactive = 30% or less;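 also: compound concentration not given in the record; tested on top of an EC20 dose of dopamine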
#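 PathHunter beta-arrestin assay in DiscoveRx D2 cells. Compounds were added with an EC20 of dopamine (50 nM final) for 90 min at 37 deg C. Luminescence was read 1 h after detection reagent, with 57 uM dopamine as the EC100 control.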
# * marks the source's active call; other numbers are inactive results; ? = inconclusive; nt = no result given; [ ] = another dose, or the depositor's remark.
SMILES,Six1-Eya2 inh,gsp antagonist,gsp ag,D2 agonist,CtBP-E1A inh,D2 potentiator
COC(=O)c1cc(OC)c(OC)cc1NC(=O)CN1CCCCC1,-3,1%,5%,-1.2,-6,-6
COc1ccc2sc(-c3ccc(S(C)(=O)=O)cc3)c(C(=O)NCCCN3CCCC3=O)c2c1,17,-6%,nt,12,0,nt
CC1CCC(NC(=O)COC(=O)c2cccnc2Cl)CC1 (stereo not given),3,-1%,-13%,-2.1,nt,-5
COc1cccc(OCC(=O)Nc2ccccc2C(=O)Nc2ccc(C(=O)O)cc2)c1,15,?,30%,-2.9,0,6
COc1ccc2nc(SCC(=O)Nc3nonc3C)[nH]c2c1,-3,12%,3%[15.4 µM],-6.1,-13,-1
Cc1cc(OCC(=O)O/N=C(\N)Cc2cccs2)ccc1Br,80,-30%,-41%,2.4,20,-2
CCOC(=O)N1CCN(c2ccc(S(=O)(=O)N3CCOCC3)cn2)CC1,10,0%,-27%,-3.8,0,11
Cc1cc(NCCCn2ccnc2)n2nc(C)c(-c3ccccc3)c2n1,-15,-6%,-2%,-1.2,-22,3
Nc1ccccc1Sc1ccccc1[N+](=O)[O-],-15,4%,-32%[inhibitor],-3.9,-2,-15
O=C(COC(=O)CCc1c[nH]c2ccccc12)NC(c1ccccc1)c1ccccc1,-23,6%,-43%[inhibitor],-3.8,-24,-19
CC(C)NC(=O)C1(S(=O)(=O)c2ccccc2)CC=CC1,-1,14%,-12%,0.9,0,-4
O=C(CN1CCN(Cc2ccc3c(c2)OCO3)CC1)Nc1ccc(N2CCOCC2)cc1,7,-9%,9%[15.4 µM],-6.4,4,-12
CCOC(=O)c1cc2c(C)[nH]c(C)c2cc(C(=O)OCC)c1=O,-17,-2%,32%,4.5,-16,-1
CCc1ccc[n+](-c2[nH]c(=O)sc2/C=N/NC([S-])=Nc2ccccc2)c1,?,9%,-50%[inhibitor],1.5,-23,-4
CCOC(=O)C1CCN(C(=O)CSc2nc3ncccc3[nH]2)CC1,3,4%,0%,-3.5,nt,0
COc1cccc(-n2nnc3c(=O)n(CC(=O)Nc4cc(C)on4)cnc32)c1,5,1%,6%,-4.6,-1,-1
N#C/C(C(=O)NCc1ccco1)=C1/SC=C(c2ccccc2)N1c1ccccc1,6,21%,?,-1.0,1,5
CSc1ccccc1C(=O)N1CCCCC1,6,21%,-29%,-3.6,8,-7
CCCC(=O)OCC(=O)Nc1ccc2c(c1)OCO2,-16,4%,-1%[15.4 µM],-5.1,-12,-1
CCC1=C(OC(=O)N(CC)CC)N2C(=O)OC(=NCc3ccccc3)[C@]2(C)[C@H]2C1=CC[C@H]1C(=O)NC(=O)[C@H]12,-6,-7%,nt,-3.8,-28,-9
Cc1cccc2cc(C#N)c(N3CCN(C)CC3)nc12,3,-10%,-15%,-3.9,3,-27
COc1cccc(Cn2nnc(C(=O)Nc3cc(C)ccc3OC)c2N)c1,15,2%,-67%[inhibitor],0.1,-2,-1
CCN1CCSc2ccc(C(=O)NCc3ccc(OC(C)C)cc3)cc21,-17,-21%,20%,-3.8,-18,-12
COc1cc(NC(=O)c2cc3nc(C4CC4)cc(C(F)(F)F)n3n2)c(OC)cc1Cl,-1,2%,17%,-0.2,5,-2
Cc1ccccc1-n1c(SCc2c(C)noc2C)nnc1-c1c[nH]c2ccccc12,-11,-8%[15.4 µM],10%,-2.2,7,22
Cc1nc2cc(NC(=O)N3c4ccccc4CC3C)ccc2n1C (stereo not given),2,-2%,-42%[inhibitor],-0.9,5,-17
COCCCNC(=O)CCn1nc(-c2ccc(Cl)cc2)ccc1=O,7,2%,?,2.8,4,-2
COc1cc(C=NN2CCCCC2)cc(OC)c1OC,-17,nt,?,-7.7,1,-7
COc1ccc(-c2c[n+](CC(=O)N3c4ccccc4Sc4ccccc43)c3n2CCC3)cc1,-18,13%,-3%[15.4 µM],-3.0,10,-8
Oc1ccc2nc(Cc3ccccc3)[nH]c2c1,-2,-8%,?,-1.8,1,-6

# An excerpt of these results, field by field.
Cc1nc2cc(NC(=O)N3c4ccccc4CC3C)ccc2n1C (stereo not given)
  Six1-Eya2 inh = 2	gsp antagonist = -2%	gsp ag = -42%[inhibitor]	D2 agonist = -0.9	CtBP-E1A inh = 5	D2 potentiator = -17
COCCCNC(=O)CCn1nc(-c2ccc(Cl)cc2)ccc1=O
  Six1-Eya2 inh = 7	gsp antagonist = 2%	gsp ag = ?	D2 agonist = 2.8	CtBP-E1A inh = 4	D2 potentiator = -2
COc1cc(C=NN2CCCCC2)cc(OC)c1OC
  Six1-Eya2 inh = -17	gsp antagonist = nt	gsp ag = ?	D2 agonist = -7.7	CtBP-E1A inh = 1	D2 potentiator = -7
COc1ccc(-c2c[n+](CC(=O)N3c4ccccc4Sc4ccccc43)c3n2CCC3)cc1
  Six1-Eya2 inh = -18	gsp antagonist = 13%	gsp ag = -3%[15.4 µM]	D2 agonist = -3.0	CtBP-E1A inh = 10	D2 potentiator = -8

# Further records follow.
SMILES,Six1-Eya2 inh,gsp antagonist,gsp ag,D2 agonist,CtBP-E1A inh,D2 potentiator
COc1ccc(C2C(C(N)=O)=C(C)Nc3nc(-c4ccccc4)nn32)cc1OC (stereo not given),3,3%,-25%,-1.8,3,-2
O=C(CSc1ncn[nH]1)Nc1ccc(Br)cc1F,12,12%,-1%,-4.0,3,-10
Cn1cccc1-c1cc(C(=O)N/N=C/c2ccc([N+](=O)[O-])cc2)[nH]n1,2,0%,13%[15.4 µM],-4.9,0,-4
CC1(C)CC(=O)N(c2ccc(Cl)cc2Cl)C(=O)C1,-12,-1%,7%[15.4 µM],-2.1,-5,-4
CN(c1ccc(C(=O)NCC2CCCO2)cc1)S(C)(=O)=O (stereo not given),9,4%,16%,-0.8,14,-14
COc1ccc(CCNC(=O)c2ccc(CNS(=O)(=O)c3ccccc3)cc2)cc1OC,7,-6%,1%,2.1,-7,-5
COc1ccc(-c2[nH]nc3nc(N4CCN(C(=O)c5ccoc5)CC4)cc(C(F)(F)F)c23)cc1,17,nt,?,-9.5,6,-2
Cn1c(=O)c2c(nc(CN3CCN(c4ccc(F)cc4)CC3)n2CCN2CCOCC2)n(C)c1=O,-4,-5%,20%,-2.6,-10,-18
O=C(CC1C(=O)NCCN1CCCc1ccccc1)NCCc1ccccc1Cl (stereo not given),-4,-1%,-7%,-4.6,nt,-7
COc1cccc(C2=NOC(C(=O)N3CCOCC3)C2)c1 (stereo not given),-2,10%,-19%,-0.5,3,-5
CCN(CC)CCNC(=O)CS(=O)Cc1nc(-c2ccccc2Cl)oc1C (stereo not given),-2,-7%,-34%[inhibitor],-2.2,18,-7
CCOc1ccc(CC(=O)NNC(=S)Nc2ccc(OC)c(OC)c2)cc1,1,9%,10%,2.8,0,-13
Cc1cc(NC(=O)CSc2nnnn2-c2ccc(C)c(C)c2)no1,7,-6%,?,3.1,1,-5
N#CCC(=O)Nc1ccc(C(=O)OCC(=O)NC(=O)Cc2ccccc2)cc1,3,2%,20%[15.4 µM],-2.8,-2,1
COc1ccc(/C=C/S(=O)(=O)NCc2ccccc2)cc1OC,10,5%,35%,-2.9,?,3
CCOC(=O)C(Cc1ccccc1)NC(=O)CNC(=O)CNC(=O)OCc1ccccc1 (stereo not given),3,-6%,17%[15.4 µM],0.9,14,-8
O=C(Cc1ccc(Br)cc1)NNC(=O)c1cccs1,4,8%,-1%,1.6,3,-2
C=C(C)C1CC=C(C)/C(=N/NC(=O)c2ccccc2[N+](=O)[O-])C1 (stereo not given),-2,-2%,-6%[15.4 µM],7.4,nt,-5
Cn1c2c(c(=O)n(C)c1=O)CN(Cc1ccccc1)CN2,3,nt,nt,-4.4,8,0
O=C(COc1ccc(NC(=O)c2ccccc2[N+](=O)[O-])cc1)c1ccc(F)cc1,-3,-6%,-3%[15.4 µM],-1.9,11,-3
COc1ccc(Cc2nnc(NC(=O)Nc3ccccc3OC)s2)cc1,5,0%,-2%,0.0,2,0
C=CCC1(CC=C)CCCN1C(=O)c1cc(COc2ccc(C)nc2)on1,3,?,-50%[inhibitor],11,nt,-7
Cc1ccc(NC(=O)c2ccccc2OCC(=O)c2ccc(F)cc2)cc1,11,-7%,-28%,-4.4,0,3
Cc1cc(Cl)ccc1NC(=O)CSc1nnc(Cc2cccs2)n1Cc1ccco1,-7,-22%,2%,-3.7,-4,-29
COc1ccc(/C(N)=N/OC(=O)CSc2ccccc2)cc1OC,14,4%,24%,-3.1,21,-2
Cc1ccccc1NC(=S)N(CCc1c(C)[nH]c2ccc(F)cc12)Cc1cccnc1,-10,-19%,-53%[inhibitor],?,nt,16
COc1ccc(-n2nc(C(=O)NCC(=O)Nc3cc(OC)c(OC)c(OC)c3)c3ccccc3c2=O)cc1Cl,-5,-17%,-51%[inhibitor],-0.3,1,6
COc1ccc(Cn2nnnc2CN(Cc2cc3ccc(C)cc3[nH]c2=O)C2CCCC2)cc1,-8,-12%,26%,-0.1,-11,-6
O=C(NCCNC(=O)c1ccco1)c1ccc(Cl)c(Cl)c1,-9,6%,24%,0.5,3,-6
Cc1ccc(-c2csc3ncn(-n4c(C)ccc4C)c(=O)c23)o1,-16,-2%,21%,-2.8,-7,-8
COc1cc(C(=O)Nc2ccccc2N2CCN(S(C)(=O)=O)CC2)cc(OC)c1OC,11,-3%,-41%[inhibitor],1.0,0,-3
Cc1nnc(SCCn2c(Br)nc3c2c(=O)n(C)c(=O)n3C)s1,7,11%,?,-3.4,2,-13
Cc1ccc(C)c(OCC(=O)Nc2nc3ccc([N+](=O)[O-])cc3s2)c1C,-1,?,-9%,-2.5,4,-5
COc1ccc(NC(=O)NC2CCCCCCC2)cc1,-4,-6%,?,3.2,0,-11
Cc1ccc(CSCC(=O)Nc2ccc(N3CCOCC3)cc2N2CCOCC2)cc1,-1,5%,-6%,-3.9,-1,18
Cc1ccc(-n2c(SCc3nc4ccccc4[nH]3)nnc2-c2ccncc2)cc1,1,5%,-6%[15.4 µM],1.1,5,-10
O=C(CCN1C(=O)/C(=C\c2ccccc2)SC1=S)NNC(=O)c1ccncc1,-13,-16%,-8%,-3.8,nt,-7
Cc1ccccc1C(=O)Nc1cccc(-c2ccc3nncn3n2)c1,-8,-3%,?,0.0,-1,3
Cc1ccc2c(COC(=O)CNC(=O)c3ccccc3)cc(=O)oc2c1,-3,-2%,-21%,-5.8,3,-17
C/C(Cn1nnc2ccccc21)=N\NC(=O)c1ccc(Br)cc1,-4,0%,-9%[15.4 µM],4.1,2,-19
CCOC(=O)C1=C(c2ccccc2)NC(=O)NC1c1cc(Br)c(O)c(OC)c1 (stereo not given),-5,2%,27%,2.3,7,-16
COc1ccc(OC)c(Nc2nc(-c3ccncc3)nc3ccccc23)c1,-3,-15%,6%,-0.7,-16,-1
CC1=NN(C(N)=S)C(=O)C1N=Nc1c(Cl)cc([N+](=O)[O-])cc1Cl (stereo not given),?,?,?,1.2,nt,-14
CC(C)Cn1c(-c2cc([N+](=O)[O-])ccc2Cl)nc2c1c(=O)[nH]c(=O)n2Cc1ccccc1,1,-11%,-3%,1.5,-3,9

# Compounds as they come. Share with any hit: about 1.4%.
